# Screens deposited in PubChem by National Center for Advancing Translational Sciences (NCATS).
# Vaccinia Venus: qHTS for Stage-Specific Inhibitors of Vaccinia Orthopoxvirus: Venus Reporter Primary qHTS; Vaccinia virus Venus reporter expression, fluorescence; Potency, µM (titrated, usually from 36.5 µM), inactives show top-dose activity change, negative = inhibition, usual class: inhibitors; 330,000 compounds, 0.46% hits; active means well fitted inhibition curve with a large enough effect; inconclusive means small, poorly fitted or top-dose-only effect; inactive means no such curve, though single readings can be large or run the other way; tested in A549 cells; also: nearly all actives have a fitted effect of over 30% in size; inactives centre near -10
# VACV mCherry inh: qHTS for Stage-Specific Inhibitors of Vaccinia Orthopoxvirus: mCherry Reporter Primary qHTS; Vaccinia virus mCherry reporter infection, fluorescence; about a quarter of the inactives have no number; Potency, µM (titrated, usually from 36.5 µM), for inactives: at the top dose activity change, negative = inhibition, actives largely listed as inhibitors; 310,000 compounds, 0.63% hits; AID 720579, 2013; active = well fitted inhibition curve with a large enough effect; inconclusive = small, poorly fitted or top-dose-only effect; inactive = no such curve, though single readings can be large or run the other way; tested in A549 cells; also: nearly all actives have a fitted effect of over 35% in size; inactives centre near -10
# Numbers without * were called inactive; i = inactive; ? = inconclusive; nt = not tested or not shown; & = joins results of further samples; [ ] = remark or other dose. % is scaled to controls: 0 for no effect and ±100 for the full control effect; potency is read from the fitted curve at half-maximal effect.
# The line under a structure holds: Vaccinia Venus | VACV mCherry inh
- O=C(COC(=O)c1cc(-c2cccs2)nn1-c1ccccc1)Nc1ccc(Cl)c([N+](=O)[O-])c1
  -1% | -2%
- O=C(O)c1cc([N+](=O)[O-])ccc1NCCCc1ccccc1
  -17%&-10% | -11%
- CN1c2ccccc2Sc2cc(N)ccc21
  4% | i
- O=C(O)CC/C(=N/Nc1ncc(C(F)(F)F)cc1Cl)C(=O)O
  -5% | i
- Cn1c(COc2ccc([N+](=O)[O-])cc2)nnc1SCC(=O)NCC1CCCO1 (stereo unspecified)
  -5% | -9%
- O=S(=O)(/C(=C/c1ccc(C(F)(F)F)cc1)c1nc2ccccc2[nH]1)c1ccccc1
  10µM* | 10µM*
- Cc1ccc2c(c1)N(CCC(=O)NCc1ccc(F)cc1)C(=O)CO2
  0% | -2%
- Cc1ccc(NC(=O)CN(C)S(=O)(=O)c2cccc3cccnc23)cc1F
  -22%&-5% | -11%
- Clc1cccc(Cl)c1C1=NOC(c2nnc(-c3ccccc3)o2)C1 (stereo unspecified)
  -5% | 2%
- COCCCN=Cc1c(C)[nH]n(-c2ccc(Br)cc2Br)c1=O
  -8% | -12%
- COc1cccc(CNC(=O)CCC(=O)N2Cc3cccc(OC)c3Oc3ncccc32)c1OC
  -14% | -9%
- Cc1ccc2nc(COc3cccc(NC(=O)c4ccccc4Cl)c3)cc(=O)n2c1
  -3% | -1%
- C=CCN(CC=C)Cc1c(O)ccc2c1oc(=O)c1ccccc12
  -3% | i
- Cc1ccsc1CN1CCc2nc(Nc3ccccc3)ncc2C1
  ? | -26%
- Cc1cccc(NS(=O)(=O)c2ccc(C)c(C(=O)OCC(=O)Nc3cc(C)on3)c2)c1
  9% | 22µM*
- CC(Oc1cc2oc(=O)c3c(c2cc1Cl)CCCC3)C(=O)NCCN1CCOCC1 (stereo unspecified)
  -9% | -7%
- Nc1nc2n(n1)C(c1ccccc1)CC(c1ccc(F)cc1)N2 (stereo unspecified)
  -6% | -10%
- CCn1c(SCc2cccc(OC)c2)nc2ccccc2c1=O
  -11% | -7%
- COc1cccc(/C=N\NC(=O)c2ccc(Cn3cc(Br)c([N+](=O)[O-])n3)o2)c1O
  ? | 1.3µM*
- CC1CCCN(c2nc3c(c(=O)[nH]c(=O)n3C)n2CCCc2ccccc2)C1 (stereo unspecified)
  -8% | ?
- Cc1ccc(S(=O)(=O)CCN2C=CC(C(F)(F)F)=NCC2)cc1
  -7% | i
- O=C(CCN1CCN(C/C=C/c2ccccc2)CC1)Nc1ccccc1F
  -13% | -24%
- Cc1ccc(NC(=O)c2ccc(S(=O)(=O)N3CCOCC3)cc2)cc1
  -12% | 29%
- O=C(CC1N=C2c3ccccc3N=C(SCc3ccccc3F)N2C1=O)NCc1ccc2c(c1)OCO2 (stereo unspecified)
  -15% | -28%
- Cc1noc(C)c1C(=O)Nc1ccccc1-c1ccccc1
  -11% | i
- Cc1ccccc1C(=O)Nc1ccc2nc(SCCOc3ccccc3)sc2c1
  -15% | -15%
- COc1ccc(NC(=O)CCn2c(=O)c3cccn3c3ccccc32)cc1
  -1% | -15%
- Fc1ccc(CN2CCN(c3ncccn3)CC2)cc1
  -16% | -13%
- Cc1ccc2c(c1)CCCN2C(=O)c1ccncc1
  -3% | i
- CCOC(=O)c1cc(-c2ccc(C)cc2)nn1Cc1ccccc1
  0% | -7%
- CCc1cnc2c(c1SCCC(C)C)c(=O)n(C)c(=O)n2C
  -9% | -10%
- COc1cc(Nc2nc3ccc(Cl)cc3n3cnnc23)cc(OC)c1OC
  -8% | ?
- Oc1cc(OCc2ccccc2)ccc1-c1[nH]ncc1-c1ccccc1
  ? | ?
- Cc1ccc(S(=O)(=O)c2nc(-c3ccccc3)oc2SCC(=O)NCC2CCCO2)cc1 (stereo unspecified)
  -11% | -10%
- Cc1ccc(F)cc1C(=O)N1CCCCC1c1cc(C(=O)Nc2ccccc2)no1 (stereo unspecified)
  -4% | -2%
- CCOc1ccc(Cl)cc1S(=O)(=O)N1CCN(c2ccc(F)cc2)CC1
  -19% | -16%
- Cc1nc2ccccc2c(=O)n1-c1ccc(NC(=O)C(F)(F)F)cc1
  -3% | -13%
- COc1ccc(C(=O)NCCN=C2NS(=O)(=O)c3ccccc32)cc1
  -3% | -2%
- Nc1nc(-c2ccccc2)[nH]c(=O)c1N
  -13% | -17%
- Cc1ccc(CNC(=O)C(Cc2ccccc2)n2cccc2)cc1 (stereo unspecified)
  -8% | -16%

# Compound profiles (already shown). Values in the order: Vaccinia Venus	VACV mCherry inh
# `Oc1cc(OCc2ccccc2)ccc1-c1[nH]ncc1-c1ccccc1` reads ?	?
# `Cc1ccc(S(=O)(=O)c2nc(-c3ccccc3)oc2SCC(=O)NCC2CCCO2)cc1` (stereo unspecified) reads -11%	-10%
# `COc1cc(Nc2nc3ccc(Cl)cc3n3cnnc23)cc(OC)c1OC` reads -8%	?
# `COc1ccc(C(=O)NCCN=C2NS(=O)(=O)c3ccccc32)cc1` reads -3%	-2%
# `Cc1nc2ccccc2c(=O)n1-c1ccc(NC(=O)C(F)(F)F)cc1` reads -3%	-13%

# Part of the list above, as labelled records.
> CCc1cnc2c(c1SCCC(C)C)c(=O)n(C)c(=O)n2C
  Vaccinia Venus: -9%
  VACV mCherry inh: -10%
> Cc1ccc(CNC(=O)C(Cc2ccccc2)n2cccc2)cc1 (stereo unspecified)
  Vaccinia Venus: -8%
  VACV mCherry inh: -16%

# Remaining list, next part
# The line under a structure holds: Vaccinia Venus | VACV mCherry inh
- CCN(CC)S(=O)(=O)c1cccc(C(=O)N2CC(O)CC2C(=O)OC)c1 (stereo unspecified)
  -18% | i
- Cc1nc2ccccc2n1CC(O)c1ccccc1 (stereo unspecified)
  -3% | i
- CCc1nc2ccc(C(=O)N3CCN(C(=O)c4ccco4)CC3)cn2c1N(C)Cc1cccs1
  -3% | 8%
- Cc1c(C(=O)O)oc2c1-c1nn(Cc3ccc(Cl)cc3)cc1CC2
  -8% | -10%
- Nc1cc2c(cc1Cl)-c1ccc(Cl)cc1C2=O
  -11% | i
- CC(NC(=O)c1ccc(Cl)cc1Cl)C(c1ccccc1)N1CCOCC1 (stereo unspecified)
  -7% | -11%
- O=C(O)COc1ccccc1C=NNC(=O)c1ccccc1NS(=O)(=O)c1cccs1
  -4% | i
- Cc1cc(SCCOc2ccc(Br)cc2)nc(N)n1
  -21% | -29%
- O=C(Cn1nnc2ccccc21)OCC(=O)c1ccccc1
  -14% | -21%
- COc1cc(NC(=O)Nc2nc(C(N)C(C)C)cs2)cc(OC)c1OC (stereo unspecified)
  -20% | 10%

# Three entries from above, as labelled records:
compound: CCN(CC)S(=O)(=O)c1cccc(C(=O)N2CC(O)CC2C(=O)OC)c1 (stereo unspecified)
  Vaccinia Venus: -18%
  VACV mCherry inh: i

compound: Cc1c(C(=O)O)oc2c1-c1nn(Cc3ccc(Cl)cc3)cc1CC2
  Vaccinia Venus: -8%
  VACV mCherry inh: -10%

compound: CCc1nc2ccc(C(=O)N3CCN(C(=O)c4ccco4)CC3)cn2c1N(C)Cc1cccs1
  Vaccinia Venus: -3%
  VACV mCherry inh: 8%

# (next part)
# The line under a structure holds: Vaccinia Venus | VACV mCherry inh
- CC1(C)C(C=C(Cl)Cl)C1C(=O)N(Cc1ccccc1Cl)C1CCS(=O)(=O)C1 (stereo unspecified)
  -20% | -30%
- CCOc1cc2sc(N3CCC(C(=O)Nc4ccc(CC)cc4)CC3)nc2cc1Br
  -4% | 1%
- Cc1ccsc1/C=N/NC(=O)c1ccc2c(c1)OCCO2
  -9% | i
- COc1ccc(C(c2nnnn2C2CCCC2)N2CCC3(CC2)C(=O)NCN3c2ccccc2)cc1 (stereo unspecified)
  3% | 12%
- O=C(Cn1c(=O)n(Cc2ccco2)c(=O)c2ccccc21)Nc1ccc(Cl)cc1Cl
  -12% | -6%
- ON(CCc1ccccn1)CCc1ccccn1
  3% | -10%
- Cn1cc(C(=O)NCc2ccccc2Cl)c(=O)c2cc(S(=O)(=O)N3CCCCCC3)ccc21
  -21% | -23%
- O=C(Nc1ccccc1OC(=O)N1CCOCC1)N1CCOCC1
  0% | -8%
- CN1CCN(Cc2nc3ccccc3c(=O)n2Cc2nc(-c3ccc4ccccc4c3)cs2)CC1
  13µM* | ?
- Cc1nc2cc3sc(C)nc3cc2s1
  -10% | -12%
- O=C(Nc1cnn(Cc2ccccc2)c1)c1cc2nc(-c3ccco3)cc(C(F)(F)F)n2n1
  -19% | -18%[1.46 µM]
- CC1(C)CNC(=O)CC(C)(C)N1O
  -5% | -7%
- COC(=O)C1CCN(Cc2ccc3c(c2)CN(C(=O)c2cc(C)on2)CCO3)CC1
  -9% | -17%
- COc1ccc(-n2c(=O)c3sc4ccccc4c3n(CC(=O)Nc3cccc(C)c3)c2=O)cc1
  -3% | -5%
- Cc1cccc(NS(=O)(=O)c2cccc(C(=O)N3CCCC(C(F)(F)F)C3)c2)c1 (stereo unspecified)
  -1% | -19%
- N#CC1=C(N)Oc2n[nH]c(-c3cccs3)c2C1c1ccncc1 (stereo unspecified)
  5% | -7%
- CCN(CC)c1ccc2cc(C(N)=O)c(=N)oc2c1
  ? | ?
- Cc1cccn(Cc2c(Cl)cccc2Cl)c1=O
  -9% | i
- COc1cc(C(c2nnnn2C2CCCC2)N2CCN(C(=O)c3ccco3)CC2)cc(OC)c1OC (stereo unspecified)
  7% | -4%
- NC(=O)c1ccccc1N/C=C/C(=O)c1ccc(Cl)cc1
  -23% | -28%

# New compounds follow
mol	Vaccinia Venus	VACV mCherry inh
CN(C(=O)CSc1cccc[n+]1[O-])C1CCCCC1	-3%	-9%
COc1ccc(C)cc1S(=O)(=O)N(C)CC(=O)NCc1ccco1	-27%	nt
Cc1ccc(S(=O)(=O)CCC#N)cc1	3%	-4%
COc1ccc(/C=C(\NC(=O)c2ccco2)C(=O)Nc2ccc(C(C)=O)cc2)cc1	-10%	-9%
Cc1cccc(C(=O)Nc2cc(S(=O)(=O)N3CCOCC3)ccc2N2CCCCC2)c1	-19%	?
O=C(O)c1cccc(N/N=C/c2ccc(OC(F)(F)F)cc2)c1	-17%	?
COc1cc(C(=O)NCc2ccncc2)cc(OC)c1OC	-9%	-4%
COc1ccccc1N(Cc1ccccc1)S(=O)(=O)c1cccc(C(=O)Nc2ccccn2)c1	6%	i
CCc1ccc(NC(=O)COC(=O)c2cccs2)cc1	2%	-13%
CN(C)C(=S)Oc1ccccc1C1SCCS1	0%	i
COC(=O)c1ccccc1NC(=O)c1ccc2nc(CCc3ccccc3)oc2c1	9%	-10%
CC1CCN(C(=O)c2cccc(S(=O)(=O)N3CCN(c4ccccc4)CC3)c2)CC1	-8%	-10%
O=C(OCc1cnc(Cl)s1)c1ccccc1Cl	-5%	nt
Cc1ccc(NC(=O)CN2CCOCC2)cc1Cl	-6%	i
COc1ccccc1NC(=O)N1CCCC1C(=O)NCc1ccccc1 (stereo unspecified)	-18%	i
CC(=O)c1ccc(NC(=O)CSc2ccc3nnc(CCNS(=O)(=O)c4ccc(C)cc4)n3n2)cc1	-2%	-7%
O=C(COC(=O)/C=C/c1cccc(C(F)(F)F)c1)NCc1ccco1	11%	i
CC(C)(CC(=O)O)CC(=O)Nc1ccc(Cl)c(Cl)c1	-12%	-11%
CC(C)Sc1nc2c([nH]c3ccccc32)c(=O)n1C	-3%	i
CCCCCCCc1nc2sc3c(c2c(=O)n1N)CC(C)(C)OC3	2%	11%
Cc1ccc(CC2CC(=O)N(c3nc(C)cc(C)n3)C2=O)cc1 (stereo unspecified)	2%	-14%
CSc1cccc(CNC(=O)C2CCC(=O)N(CC3CCCCC3)C2)c1 (stereo unspecified)	-17%	-1%
CC1CCCC(C)N1C(=O)COC(=O)CNS(=O)(=O)c1ccc2ccccc2c1 (stereo unspecified)	-5%	i
CCOC(=O)C(=O)Nc1cc(C)on1	-10%	i
COCC(=O)N(Cc1cc2cc(OC)ccc2[nH]c1=O)c1ccccc1	-5%	nt
CCOC(=O)N1CCN(Cc2nc3cc(NC(=O)CC(C)C)ccc3n2CC)CC1	?	-21%
Cc1cc(=O)n(CC(=O)NC(C)c2ccccc2)c2c1c(C)nn2-c1cccc(F)c1 (stereo unspecified)	-4%	-1%
Cc1ccc(Cl)cc1N1CCN(C(=O)c2ccc(CN3CCOCC3)cc2)CC1	-26%	-23%
O=C(Cc1ccc(Cl)cc1)c1c[nH]c(C(=O)NCCCN2CCOCC2)c1	0%	i
O=C(O)Cn1nc(-c2ccccc2)cc1-c1ccccc1	-12%	-10%
O=C(Nn1c(-c2ccc(F)cc2)nc2ccccc2c1=O)c1cccnc1	-5%	i
COc1ccc(C(C)NC(=O)C2CCCO2)cc1OC (stereo unspecified)	-7%	-13%
COc1ccc(-n2c(SCC(=O)NCc3ccc(F)cc3)nc3c([nH]c4ccccc43)c2=O)cc1	0%	-2%
CC(C)=C(NC(=O)c1ccccc1Cl)C(=O)NCCc1nc2ccccc2[nH]1	-11%	-19%
CC(C)c1ccc(CN(C)CC(O)c2ccccc2)cc1 (stereo unspecified)	-8%	?
OC[C@H]1O[C@@H](O[C@@H]2[C@@H](CO)O[C@@](O)(CO)[C@H]2O)[C@H](O)[C@@H](O)[C@H]1O	-12%	i
Cc1ccc(NC(=O)CSc2nnc3ccccn23)c(Cl)c1	-5%	?
O=c1c2oc3ccccc3c2ncn1Cc1cccc(Cl)c1	-10%	-15%
COc1ccc(CC(=O)OCC(=O)N2CCCc3ccccc32)cc1	-7%	-11%
O=C(CN1C(=O)COc2ccccc21)NCCCN1CCOCC1	3%	-12%
